Source: PubChem BioAssay
miR-21 reporter – miR-21 reporter, rising signal | HeLa miR-21 FLuc reporter, luciferase, 48 h | 340,000 tested, under 10 active | Potency, µM (titrated, usually from 38.3 µM), inactives show top-dose reporter change, positive = more light; active = well fitted rising curve with a large enough effect; inconclusive = small, poorly fitted or top-dose-only effect; inactive = no such curve, though single readings can be large or run the other way;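 further: % of control where 0% means no effect; miR-21 action dims this reporter so a rising signal means less miR-21 action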
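Luminescence from a firefly luciferase reporter carrying a miR-21 binding site downstream, stably expressed under a CMV promoter in HeLa cells that make miR-21 endogenously, reports miRNA modulation after 48 h compound exposure up to approximately 40uM final.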
Rango dissoc inh – inhibitors of RanGTP-induced Rango-importin beta complex dissociation; 340,000 compounds, 0.071% hits; Potency, µM (doses to about 46.1 µM), inactives show at the highest dose activity change, negative = inhibition; Biochemical FRET Rango-importin beta, RanGTP-induced dissociation; active means falling FRET ratio curve, often poorly fitted, with flat reads before Ran was added; inconclusive means other falling curves, or compound fluorescence or quenching; inactive means flat or rising ratio curve;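 further: potency means the concentration at half of the fitted maximal effect; % of control where 0% means no effect; nearly all actives have a fitted effect of over 45% in size; -100% = wells without RanGTP and RCC1; the record marks most hits as doubtful in a second field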
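Quantitative HTS using a FRET biosensor: 0.1 uM Rango, 0.25 uM importin beta, 0.6 uM Ran, 2 mM GTP, 0.2 uM RCC1 final, PBS with DTT, Tween-20 and BSA. Post-read taken 45 min after Ran addition.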
GLA inh pH 4.5 – inhibitors of human alpha-galactosidase A at pH 4.5; 230,000 tested, under 10 active; activity change, negative = inhibition, % at 105 µM; P06280; purified enzyme, 4-MU-alpha-Gal fluorescence, pH 4.5; inconclusive = small, poorly fitted or top-dose-only inhibition, or a rising curve; inactive = flat fitted curve, though single readings scatter; no compound was filed as active;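 further: 0% = full activity with enzyme and -100% = basal without enzyme; dose as in the result columns while the protocol names 77 µM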
Rango-impB inh – Rango-importin beta binding inhibition. Q14974. Rango CFP/YFP FRET sensor + importin beta, 45 min. Potency, µM (titrated, usually from 92.2 µM), without a hit: top-dose inhibition of complex formation. 340,000 compounds, 0.031% hits; active = rising FRET ratio curve, often small or poorly fitted; inconclusive = mostly compound fluorescence or quenching in the first reads; inactive = flat curves in all reads;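 further: potency means the concentration at half of the fitted maximal effect; 0% = DMSO wells and 100% = buffer wells lacking importin beta; nearly all actives have a fitted effect of over 15% in size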
Target sequence (Q14974 whole entry, looked up): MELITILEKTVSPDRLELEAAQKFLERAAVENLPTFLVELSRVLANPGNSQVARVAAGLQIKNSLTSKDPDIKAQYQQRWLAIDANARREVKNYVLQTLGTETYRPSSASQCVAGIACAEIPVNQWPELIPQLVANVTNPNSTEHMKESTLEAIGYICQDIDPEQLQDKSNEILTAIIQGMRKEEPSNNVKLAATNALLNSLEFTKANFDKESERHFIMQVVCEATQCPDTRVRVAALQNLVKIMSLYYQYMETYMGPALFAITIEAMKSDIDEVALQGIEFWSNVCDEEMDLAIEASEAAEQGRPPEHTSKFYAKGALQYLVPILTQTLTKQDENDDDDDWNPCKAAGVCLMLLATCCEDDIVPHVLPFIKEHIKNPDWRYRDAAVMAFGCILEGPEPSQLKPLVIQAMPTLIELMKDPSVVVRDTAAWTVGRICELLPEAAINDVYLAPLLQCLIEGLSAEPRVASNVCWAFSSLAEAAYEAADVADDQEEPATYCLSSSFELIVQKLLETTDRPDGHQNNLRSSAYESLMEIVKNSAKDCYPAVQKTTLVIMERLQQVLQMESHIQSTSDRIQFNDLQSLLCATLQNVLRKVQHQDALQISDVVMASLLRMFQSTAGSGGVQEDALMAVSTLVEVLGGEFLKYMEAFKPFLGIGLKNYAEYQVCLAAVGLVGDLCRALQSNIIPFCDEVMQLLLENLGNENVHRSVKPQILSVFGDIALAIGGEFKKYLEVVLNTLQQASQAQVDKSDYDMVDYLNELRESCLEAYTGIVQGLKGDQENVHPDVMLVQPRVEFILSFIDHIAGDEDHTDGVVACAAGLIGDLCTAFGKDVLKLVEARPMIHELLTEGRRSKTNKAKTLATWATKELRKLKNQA
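Inhibition scored from the CFP 486 nm/YFP 530 nm FRET ratio 45 min after adding 0.125 microM importin beta to 50 nM Rango biosensor preincubated 5 min with compound (room temperature, PBS with DTT, Tween-20, BSA). No-importin wells as positive control.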
An asterisk follows results filed as active; u = inconclusive; x = no result given; & = joins results of further samples.

cpd	miR-21 reporter	Rango dissoc inh	GLA inh pH 4.5	Rango-impB inh	compound
1	23%	12%	3	1.0%	O=C1C2C(c3ccccc3)(C(=O)N1c1ccc(Cl)cc1)C2(c1ccccc1)c1ccccc1 (configuration not stated)
2	-3%	0%	5	1.7%	CCC(=O)N1CCc2cc(S(=O)(=O)NC(C(=O)NC3CCCc4ccccc43)C(C)C)ccc21 (configuration not stated)
3	-2%	6%	-22	-1.0%	COc1ccccc1NC(=O)COn1nnc2ccc(S(=O)(=O)N3CCOCC3)cc21
4	-2%	-12%	-3	-0.3%	Cc1c(Cl)cccc1NC(=O)CCN1CCCCCC1
5	17%	4%	-7	-1.1%	Cc1nn(-c2ccccc2)c(C)c1/C=N/NC(=O)c1cc(-c2ccccc2)n[nH]1
6	-13%	17%	0	-5.6%	CCC(C)(C)n1nnnc1C(c1ccc2ncccc2c1)N1CCCCCC1 (configuration not stated)
7	7%	-10%	x	1.7%	O=C(NC(=S)Nc1ccccc1N1CCOCC1)c1cccc([N+](=O)[O-])c1
8	-3%	1%	x	-2.4%	Cc1c2cnn(CC(=O)NCCN3CCOCC3)c(=O)c2c(C)n1Cc1ccccc1
9	x	5%	x	0.6%	O=C(Cn1cnc([N+](=O)[O-])c1)c1ccc(Cl)cc1
10	5%&-16%	-11%	x	-0.6%	CCC1CN(C(=O)N2CCC(C(=O)NCc3ccccc3C)CC2)c2ccccc2O1 (configuration not stated)
11	-9%	-11%	x	u	O=C(NCCc1ccc(Cl)cc1Cl)c1ccc2nc[nH]c2c1
12	-12%	-10%	-3	0.2%	CCc1ccc(-n2c(C)nc3cc(C(=O)NCc4cccnc4)ccc32)cc1
13	-6%	8%	1	u	Cc1ccc(S(=O)(=O)NCc2ccc(C(=O)N(C)CCC#N)cc2)cc1
14	1%	-4%	4	-0.1%	CC(=O)Nc1ccc(OC(=O)c2ccc(Br)c([N+](=O)[O-])c2)cc1
15	6%	-1%	-15	-1.5%	COc1ccccc1-n1c(C)nnc1SCC(=O)Nc1cccc(C(C)=O)c1
16	x	-13%	x	2.6%	COc1ccc2[nH]c3c(c2c1)CCN1C(=O)C(CC(=O)NC(C)(C)C)C[C@H](C(=O)N2CCCCC2)[C@@]31CCc1ccccc1 (some centres not stated)
17	-14%	-8%	0	-0.9%	O=C(Nc1cccc(NC(=O)c2cccs2)c1)c1ccc2c(c1)OCO2
18	0%	-5%	-8	0.9%	Cc1ccc2nc(NC(=O)C3CCN(S(=O)(=O)c4ccc5c(c4)oc(=O)n5C)CC3)sc2c1
19	-2%	4%	x	0.2%	O=C(c1cccc(Cl)c1)N1CCN(Cc2ccccc2)CC1
20	1%	-17%	x	-0.3%	O=C(CS(=O)(=O)c1ccc(F)cc1)NCCS(=O)(=O)c1ccccc1
21	-6%	1%	-4	-0.1%	O=C(NCc1cccc(Cl)c1)c1cnccn1
22	-17%	7%	-3	4.5%	CC(=O)N1N=C(c2cccc([N+](=O)[O-])c2)OC1c1ccccc1Cl (configuration not stated)
23	23%	-3%	7	3.1%	CCn1ccnc1CN(C)Cc1cn[nH]c1-c1ccc(F)cc1F
24	3%	u	-5&-4	0.4%	CN1C[C@@H]2C(c3ccc(Cl)nc3)C3(c4ccccc4)CC2(C3)[C@H]1c1ccccc1 (some centres not stated)

Quoted from the listing:
miR-21 reporter with O=C(c1cccc(Cl)c1)N1CCN(Cc2ccccc2)CC1 reads -2%
GLA inh pH 4.5 with CN1C[C@@H]2C(c3ccc(Cl)nc3)C3(c4ccccc4)CC2(C3)[C@H]1c1ccccc1 (some centres not stated) reads -5&-4
Rango dissoc inh with Cc1ccc2nc(NC(=O)C3CCN(S(=O)(=O)c4ccc5c(c4)oc(=O)n5C)CC3)sc2c1 reads -5%

Other entries
cpd	miR-21 reporter	Rango dissoc inh	GLA inh pH 4.5	Rango-impB inh	compound
25	-3%	u	x	-0.4%	Cc1nc2cc(OCc3cc(C(=O)NC(C)c4cnn(C)c4)no3)ccc2s1 (configuration not stated)
26	-1%	22%	-7	-2.2%	Cc1cccc(C(=O)Nc2ccc(O)cc2C(=O)O)c1
27	-1%	-16%	1	6.1%	O=C(N1CCOCC1)N1CCN(S(=O)(=O)c2ccccc2)C1
28	x	-1%	x	-1.8%	COc1cc(OC)c2c(-c3cccc(-c4ccc(F)c(Cl)c4)c3)cc(=O)oc2c1
29	-4%	-11%	1	-0.2%	O=C(OCc1nnc(-c2ccccc2)o1)C1=COCCO1
30	-85%	-10%	-25	1.5%	CC(=O)Nc1ccc(-c2csc(NCc3ccco3)n2)cc1
31	3%	13%	-17	-4.0%	CCOC(=O)/C(C#N)=C/c1cn(CCC(=O)O)nc1-c1cccc(Br)c1
32	-20%&1%	-14%	u	-5.3%	Cc1ccc(-n2c3nc(=O)[nH]c(=O)c-3cc3c(C)nn(-c4ccccc4)c32)c(C)c1
33	0%	13%	x	-5.7%	CCc1nc(SCC(=O)NCC2CCCO2)c2c(=O)n(C)c(=O)n(C)c2n1 (configuration not stated)
34	u	-5%	0	1.9%	CN(C)c1cc[n+](Cc2c(Cl)cccc2Cl)cc1
35	-1%	12%	7	1.6%	Cc1cccc(-n2c(N)cc(=O)nc2SCC(=O)Nc2nnc(C)s2)c1
36	-1%	-7%	0	0.0%	COc1cccc(CNC(=O)C2CCCN(S(=O)(=O)c3c(C)[nH]c(=O)[nH]c3=O)C2)c1 (configuration not stated)
37	1%	4%	-4	-3.6%	Cc1cc(C)cc(NC(=S)NC(=O)CCN2C(=O)c3ccccc3C2=O)c1
38	x	0%	x	1.3%	COc1ccccc1NC(=O)COC(=O)C1=NN(c2ccccc2)C(=O)CC1
39	-43%	u	1	u	O=C(Nc1nc2c(s1)CN(Cc1ccccc1)CC2)c1c(F)cccc1F
40	-21%	10µM*	3	u	CCN(CC)c1ccc(/C=N/NC(=O)c2cccc(N3CCCC3=O)c2)cc1
41	-2%	3%	-17	1.2%	CC(C)[C@H](NC(=O)OC(C)(C)C)C(=O)N/N=C/c1ccc2nccnc2c1
42	-6%	-4%	-12	2.2%	CCOC(=O)N1CCN(Cc2nc3c(c(=O)[nH]c(=O)n3C)n2Cc2cc(C)ccc2C)CC1
43	-6%	-13%	-3	-0.2%	Nc1nc(Cl)cc(Sc2ccc3ccccc3c2)n1
44	-5%	-2%	x	-0.7%	CC(NC(=O)c1ccccc1SCC(=O)N1CCCC1)c1ccc(F)cc1 (configuration not stated)
45	x	-13%	x	3.2%	CC(C)(C)N(Cc1ccccc1)C(=O)COC(=O)CNC(=O)c1ccco1
46	12%	7%	3	0.1%	O=C1CC(c2ccccc2)CN1Cc1ccccc1 (configuration not stated)
47	-5%	26%	x	-4.8%	Cc1ccc(-c2nc(CS(=O)(=O)CC(=O)NC3CC3)c(C)o2)cc1
48	-12%	-14%	-5	5.0%	COCCN(C(=O)C(C)C)c1nnc(-c2ccc(C(C)(C)C)cc2)s1
49	-6%	1%	0	-1.0%	COc1ccc(CC(=O)Nc2cc(Cl)ccc2O)cc1
50	x	-8%	x	3.4%	CC(=O)N1CCN(C(=O)c2ccc(S(=O)(=O)Nc3ccccc3C)cc2)CC1
51	-25%	-1%	x	-1.1%	O=C(N/N=C\c1cccnc1)c1ccccc1O
52	-3%	-18%	1	-0.7%	Cc1cccc(NC(=O)c2ccc(COc3cccc4ccccc34)o2)n1
53	-1%	u	x	0.3%	COc1cccc(OC)c1C(=O)Nc1ccccc1NC(=O)c1c(OC)cccc1OC
54	-9%	u	-6	u	COc1cc(/C=C(\C#N)C(=O)Nc2ccc3ccccc3c2)c([N+](=O)[O-])cc1OC
55	-1%	9%	x	-0.2%	CCOC(=O)c1c(NC(=O)CSc2ncn[nH]2)sc(C(C)=O)c1C
56	x	10%	x	0.4%	COc1ccc(NC(=O)CC2SC(N3CCOCC3)=NC2=O)c(OC)c1 (configuration not stated)
57	-1%	-14%	-5	0.0%	CCNc1c2c(nc3ccccc13)CC(C)(C)CC2=O
58	1%	3%	-2	-1.1%	COc1cccc(C(=O)Nn2c(C)nnc2-n2nc(C)cc2C)c1
59	x	-6%	x	1.1%	Cc1cccc(NC(=O)CSCC(=O)OCc2ccccn2)c1
60	-8%	8%	-5	u	O=[N+]([O-])c1ccc(O)c(/C=N\N=C2c3ccccc3-c3ccccc32)c1
61	-38%	-16%	2	-1.4%	O=C(Nc1ccc(OC(F)(F)C(F)F)c(NC(=O)c2cccc(F)c2)c1)c1cccc(F)c1
62	-60%	-14%	x	-0.2%	Cc1ccc(NC(=O)c2ccc3nsnc3c2)c(Cl)c1
63	x	-6%	x	u	CCN(CC(=O)Nc1c(F)cccc1F)C(=O)Cc1c(C)nc2ccccc2c1C
64	0%	5%	-1	-3.7%	CC1(C)CC(=O)C2=C(C1)OC(N)=C(C#N)C2C1CC=CCC1 (configuration not stated)
65	-1%	-15%	-8	u	CCOC(=O)CSc1nnc(CSc2nc(C)cc(C)n2)n1Cc1ccco1
66	-8%	-7%	1	-0.2%	O=C(Cn1c(=O)sc2ccccc21)NCCOc1ccccc1F
67	-8%	-6%	1	1.1%	CC(Sc1ccccc1)C(=O)Nc1ccc(N2CCOCC2)cc1 (configuration not stated)
68	0%&4%	-3%	x	1.6%	COc1ccc(C)cc1NC(=O)C1CCN(S(=O)(=O)c2cccc3nonc23)CC1
69	x	-2%	x	-3.0%	Cc1ccc(NC(=O)CNC(=O)C2CCCCC2)nc1
70	0%	-1%	x	-2.4%	CC1Oc2ccccc2N(CC(=O)N2CCCCC2)C1=O (configuration not stated)
71	-3%	8%	x	3.4%	Cc1ccc(S(=O)(=O)N2CCCC(C(=O)N3CCN(C)CC3)C2)cc1 (configuration not stated)
72	-34%	-13%	-1	-3.3%	COc1ccc(C)cc1NC(=O)CSc1nnc(-c2ccc(C)cc2)o1
73	0%	-1%	1	-1.0%	CCNc1nc(NCC)n2c(SC(C)C(=O)c3ccc(C)cc3)nnc2n1 (configuration not stated)
74	-9%	-17%	-10	-2.7%	Cn1c(NC(=O)c2ccc(Cl)cc2Cl)cc(=O)n(C)c1=O
75	-1%	-12%	x	16%	COc1ccc(/C=C/C(=O)O)cc1S(=O)(=O)N1CCCC1
76	-1%	-5%	-10	5.6%	CCN(CC)c1ccc(N2C(=O)c3ccccc3C2=O)cc1
77	-1%	18%	-11	1.4%	C/C(CCc1ccccc1)=N\NC(=O)c1ccccc1[N+](=O)[O-]
78	0%	20%	x	-1.1%	CCN1CCN(CCNC(=O)c2ccc(CS(=O)c3ccc(Br)cc3)o2)CC1 (configuration not stated)
79	5%	u	-3	u	N#CC1=C(N)N2C(=C(C#N)C1c1ccc(Br)cc1)Nc1ccccc12 (configuration not stated)
80	-9%	x	5	x	CCn1c2ccccc2c2nnc(SCc3cc(=O)n4ccsc4n3)nc21

(next part)
cpd	miR-21 reporter	Rango dissoc inh	GLA inh pH 4.5	Rango-impB inh	compound
81	6%	-5%	x	-0.3%	C[n+]1nc(Nc2ccccc2)sc1-c1ccc(O)cc1
82	x	-7%	x	-4.6%	COc1ccc([C@H]2CC(=O)C=C(c3ccc(C)c([N+](=O)[O-])c3)C2)cc1
83	-52%	-17%	x	0.4%	COc1ccccc1CC(=O)Nc1cc(C)ccn1
84	5%	-10%	4	1.0%	O=C1c2ccccc2C(O)N1c1cccnc1 (configuration not stated)

A section taken from the entries so far:
cpd	miR-21 reporter	Rango dissoc inh	GLA inh pH 4.5	Rango-impB inh	compound
80	-9%	x	5	x	CCn1c2ccccc2c2nnc(SCc3cc(=O)n4ccsc4n3)nc21
81	6%	-5%	x	-0.3%	C[n+]1nc(Nc2ccccc2)sc1-c1ccc(O)cc1

One compound at a time, from the list above. Order of values: miR-21 reporter, Rango dissoc inh, GLA inh pH 4.5, Rango-impB inh
`CCC1CN(C(=O)N2CCC(C(=O)NCc3ccccc3C)CC2)c2ccccc2O1` (configuration not stated) in the list: 5%&-16%, -11%, x, -0.6%
`CCOC(=O)CSc1nnc(CSc2nc(C)cc(C)n2)n1Cc1ccco1` in the list: -1%, -15%, -8, u
`O=C1C2C(c3ccccc3)(C(=O)N1c1ccc(Cl)cc1)C2(c1ccccc1)c1ccccc1` (configuration not stated) in the list: 23%, 12%, 3, 1.0%
`COc1ccccc1NC(=O)COn1nnc2ccc(S(=O)(=O)N3CCOCC3)cc21` in the list: -2%, 6%, -22, -1.0%

Not all compounds are listed; the hit share may differ from the screen's.
